VACV Venus inh: qHTS for Stage-Specific Inhibitors of Vaccinia Orthopoxvirus: Venus Reporter Primary qHTS; AID 720580, 2013; Vaccinia virus Venus reporter expression, fluorescence; Potency, µM (doses to about 36.5 µM), for inactives: top-dose activity change, negative = inhibition, most hits filed as inhibitors; 330,000 tested, 0.46% active; active means well fitted inhibition curve with a large enough effect; inconclusive means small, poorly fitted or top-dose-only effect; inactive means no such curve, though single readings can be large or run the other way; tested in A549 cells; also: nearly all actives have a fitted effect of over 30% in size; inactives centre near -10
VACV mCherry inh: qHTS for Stage-Specific Inhibitors of Vaccinia Orthopoxvirus: mCherry Reporter Primary qHTS. Vaccinia virus mCherry reporter infection, fluorescence; about a quarter of the inactives have no number. Potency, µM (highest dose often 36.5 µM), without a hit: at the highest dose activity change, negative = inhibition, usual class: inhibitors. 310,000 tested, 0.63% active. AID 720579, 2013; active = well fitted inhibition curve with a large enough effect; inconclusive = small, poorly fitted or top-dose-only effect; inactive = no such curve, though single readings can be large or run the other way; tested in A549 cells; also: nearly all actives have a fitted effect of over 35% in size; inactives centre near -10
An asterisk follows results filed as active; i = inactive; ? = inconclusive; . = not tested or not shown; & = joins results of further samples; [ ] = dose if it differs, or a comment. % is scaled to controls: 0 for no effect and ±100 for the full control effect; potency is read from the fitted curve at half-maximal effect. The order is random. About 0.82% of those tested had a hit in this group.

Results follow in this order: VACV Venus inh	VACV mCherry inh
CC(=O)C1CCC2C3CCC4=CC(=O)C=CC4(C)C3CCC12C (centres undefined)
    -19.8%	i
CN(C1=NS(=O)(=O)c2ccccc21)c1ccc(OC(=O)c2ccccc2F)cc1
    -19.5%	i
CC(C)(C)NC(=O)NC(=O)COC(=O)CNC(=O)C1CCCCC1
    1.5%	-2.8%
COc1ccc(-c2nn(CCC#N)cc2C(=O)Nc2ccccc2Br)cc1[N+](=O)[O-]
    0.9%	27.0%
CC(=O)NC1CSCC1OC(C)=O (centres undefined)
    0.8%	.
COc1ccc(S(=O)(=O)Nc2cc(-c3cn4ccc(C)cc4n3)ccc2C)cc1OC
    -1.6%	-20.9%
Cc1nc(S(=O)(=O)Cc2ccccc2Cl)nc2c1CCC2
    2.6%	i
COc1ccc(/C=C(\C#N)C(=O)OCC(=O)N(C)C2CCS(=O)(=O)C2)cc1 (centres undefined)
    -14.6%	-11.2%
COc1ccc(CNC(=O)CN(c2cc(C)cc(C)c2)S(=O)(=O)c2c(C)noc2C)cc1
    -1.7%	30.6%[activator]
O=C(Nc1cccc(F)c1)c1sc(Cl)nc1-c1ccccc1
    -24.4%	?
C=CCNc1nnc(C)c2ccccc12
    ?	-6.3%
CCOc1ccccc1OCC(=O)NCc1ccco1
    -3.6%	-11.2%
Cn1c(SCC(=O)O)nc2ccccc2c1=O
    -2.7%	-19.4%
O=C(Nc1ccccc1C(F)(F)F)C1CCN(S(=O)(=O)c2ccccc2)CC1
    1.6%	-6.3%
COc1ccc2c(c1)C(=O)Cc1ccccc1O2
    -19.2%	?
CCCCC1(C)NC(=O)c2c(C)sc(C(=O)OCC)c2N1 (centres undefined)
    -5.7%	.
O=C(COc1ccccc1)OCc1cc(=O)n2nc(-c3cccs3)sc2n1
    1.4%	-5.6%
COc1cc(OC)cc(C(=O)NCCN2C(=O)S/C(=C\c3cccs3)C2=O)c1
    -24.5%	-11.1%
C[C@H](CO)N1C[C@H](C)[C@H](CN(C)S(=O)(=O)c2ccc(Cl)cc2)OCc2cnnn2CCCC1=O
    -14.6%	-3.0%
COc1ccc(CCn2c(-c3ccc(C(C)(C)C)cc3)n[nH]c2=S)cc1OC
    -10.2%	-2.8%
Cc1ccc(C)c(NS(=O)(=O)c2ccc3c4c(cccc24)C(=O)N3)c1
    -25.9%	?
Cc1cccc(N2CCC(N=CN(C)C)=N2)c1
    -9.8%	-14.8%
O=C(Nc1ccc(S(=O)(=O)N2CCCCC2)cc1)C1CC(=O)N(c2ccc(Cl)cc2)C1 (centres undefined)
    ?	?
CCC(=O)Nc1cc2nn(-c3ccc(OC)cc3)nc2cc1C
    -8.1%	-11.7%
CCn1c(C)c(C)c2cc(C(=O)NCc3ccc(F)cc3)ccc21
    -8.7%	-13.0%
Cc1ccc(Cn2c(SCC(=O)NCC3CCCO3)nc3c2c(=O)n(C)c(=O)n3C)cc1 (centres undefined)
    -11.9%	-1.0%
Cc1ccc(C(=O)COC(=O)c2cc(=O)[nH]c3ccccc23)cc1
    -10.4%	-18.5%
O=C(Nc1ccc(OC(F)(F)F)cc1)c1ccc2c(c1)no[n+]2[O-]
    ?	?
Cc1cc(Cl)c(OCCCN2CCCCC2)c(Br)c1
    -15.2%	-24.4%
CCc1ccc(Oc2c(C(F)(F)F)oc3c(CN4CCN(CC)CC4)c(O)ccc3c2=O)cc1
    -21.2%	-9.3%
CC(CO)NC(=O)C1C=C2c3cccc4[nH]cc(c34)C[C@H]2N(C)C1 (some centres undefined)
    -6.1%	-13.2%
CCCCCCSc1ccc([C@H]2N[C@@](CC(C)C)(C(=O)OC)[C@H]3C(=O)N(C)C(=O)[C@@H]23)cc1OC
    ?	-9.1%
CC(=O)c1ccc(NC(=O)/C(=C\c2ccccc2)NC(=O)c2ccco2)cc1
    -7.5%	i
Cc1ccc(O)c(C2=NNC(c3ccc(Cl)cc3)C2)c1 (centres undefined)
    -12.7%[7.34 µM]	-15.0%[7.34 µM]
CC(C)(O)C(=O)NN(C(=O)c1ccccc1)c1cccc(Br)c1
    -9.6%	.
O=C(c1cccc(Br)c1)N1CCN(C2=NS(=O)(=O)c3ccccc32)CC1
    -5.8%	i
c1ccc2c(C(c3nnnn3-c3ccc4c(c3)OCCO4)N3CCOCC3)ccnc2c1 (centres undefined)
    -2.8%	44.4%[activator]
O=C(CN1CCN(Cc2ccccc2)CC1)Nc1ccc(-n2cnnn2)cc1
    -9.9%	-2.8%
CC(=O)N1CCN(c2ccccc2NC(=O)Cc2ccc(Cl)cc2)CC1
    -8.1%	-4.8%
COc1ccc(C(=O)NNC(=O)CSc2nnc(-c3cccnc3)o2)cc1
    3.8%	-13.8%
COC(=O)c1cccc(NC(=S)N2CCN(C)CC2)c1
    -7.0%	-6.0%
CCOC(=O)c1sc2nc(N3CCOCC3)c3c(c2c1N)CCN(Cc1ccccc1)C3
    ?	?
CCN(CC)S(=O)(=O)c1cccc(-c2nnc(SCc3nnc(-c4ccccc4)o3)n2C)c1
    -21.7%	.
COc1ccc(CCNC(=O)COC(=O)Cc2cccc(F)c2)cc1
    -12.3%	?
COc1ccc(Br)c(C(=O)Nc2cc3c(cc2N2CCOCC2)n(C)c(=O)n3C)c1
    -2.6%	-14.7%
Cc1cc(C)n(/N=C/c2cccc([N+](=O)[O-])c2)c(=O)c1
    -12.8%	-8.1%
COc1ccc(C=C2C(=O)N(C)C(=O)N(C)C2=O)cc1CSc1ccccn1
    -16.5%	.
CCN(Cc1ccccc1)c1ccc(/C=N/N2CCOCC2)cc1
    -16.0%	-21.0%
Cn1nccc1CNC(=O)c1c(Cl)cnn1C
    -10.3%	-10.2%
COc1cc(NC(=O)C2CCCC2)c(OC)cc1Cl
    -15.4%	-7.3%
COc1ccc(OC)c(-c2c3c([nH]c(=S)c2C#N)CCCC3)c1
    -0.7%	-15.8%
CCN1CCN(C(=O)C2=CC(c3ccc(C)cc3)=NS(=O)(=O)N2C)CC1
    -10.0%	i
CC1CC(C)CN(CCCNC(=O)c2c(O)nc3ccccn3c2=O)C1 (centres undefined)
    2.1%	-13.1%
COc1ccc(NC(=O)CN(c2ccc(C)cc2)S(=O)(=O)c2cccc3nonc23)cc1OC
    1.0%	-15.4%
Cc1cc(NS(=O)(=O)c2ccc(NS(=O)(=O)c3cc(C)c(Cl)cc3Cl)cc2)no1
    -7.0%	i
CSc1cccc(NC(=O)CCS(=O)(=O)c2cccc3nonc23)c1
    -4.2%	-27.8%
CCc1ccc(NC(=O)C(C)OC(=O)c2ccc(-n3cnnn3)cc2)cc1 (centres undefined)
    9.7%	i
O=C(O)c1cccc(-c2ccc(/C=N/NC(=O)c3cccnc3)o2)c1
    -3.2%	-19.1%
Oc1ccc(-c2cn3cc(C(F)(F)F)ccc3n2)cc1
    -1.9%	i
CCN(C(=O)COC(=O)c1cc(-c2ccccc2)nc2c1c(C)nn2-c1ccccc1)C1CCS(=O)(=O)C1 (centres undefined)
    -14.9%	-16.1%

(further entries)
Results follow in this order: VACV Venus inh	VACV mCherry inh
O=C(COC(=O)Cn1cnc2ccccc2c1=O)Nc1ccccc1OC(F)F
    -9.9%	i
Cc1cc(=O)[nH]c2nnc(SCc3c(F)cccc3Cl)n12
    -14.6%	i
Cc1onc(-c2ccccc2)c1C(=O)NC(C)c1ccccc1 (centres undefined)
    -4.8%	-10.1%
CN(NC(=O)COc1ccccc1)c1ccccc1
    -1.2%	-14.7%
Cc1ccc(O)c(-c2cc(C(=O)NCc3ccc4c(c3)OCO4)[nH]n2)c1
    -19.8%	-6.5%
CCC(Cc1ccccc1)n1c(=S)[nH]c2ccccc2c1=O (centres undefined)
    -2.6%	-3.3%
COc1ccc(C(=O)Nc2ccc(N3CCN(c4ccc(OC)cc4)CC3)c(C#N)c2)cc1
    3.1%	.
CCOc1ccc(-n2ccnc2SCC(=O)Nc2ccc(OC)cc2OC)cc1
    -15.4%	i
OC(c1ccc(F)cc1)c1nc(-c2ccc(F)c(Cl)c2)cs1 (centres undefined)
    -11.5%	i
COc1ccc(CNC(=O)C(C)n2nc(C)c3c(C)n(-c4ccccc4)nc3c2=O)c(OC)c1 (centres undefined)
    -20.0%&-13.4%	?
Cc1cccc2cc(/C=N/NC(=O)c3ccccc3O)c(Cl)nc12
    -7.2%	-10.1%
O=C(COc1ccccc1Cl)NCCNC(=O)c1ccncc1
    13.3%	1.4%
Cc1cccc(-c2cnc(C(O)c3ccc4ccccc4c3)[nH]2)c1 (centres undefined)
    -7.1%	20.9%
COc1ccc(NC(=O)CSc2nc3cccnc3n2C)cc1
    -17.6%	-10.9%
CC(=O)N1c2ccc(S(=O)(=O)Nc3ccc(C)c(Cl)c3)cc2CC1C (centres undefined)
    -23.7%	-14.4%

Exported with each value named: part of the list above.
> Cc1ccc(C(=O)COC(=O)c2cc(=O)[nH]c3ccccc23)cc1
  VACV Venus inh: -10.4%; VACV mCherry inh: -18.5%

> CC1CC(C)CN(CCCNC(=O)c2c(O)nc3ccccn3c2=O)C1 (centres undefined)
  VACV Venus inh: 2.1%; VACV mCherry inh: -13.1%

> CCN1CCN(C(=O)C2=CC(c3ccc(C)cc3)=NS(=O)(=O)N2C)CC1
  VACV Venus inh: -10.0%; VACV mCherry inh: i

> COc1ccc(S(=O)(=O)Nc2cc(-c3cn4ccc(C)cc4n3)ccc2C)cc1OC
  VACV Venus inh: -1.6%; VACV mCherry inh: -20.9%

(more compounds)
Results follow in this order: VACV Venus inh	VACV mCherry inh
Clc1ccccc1Nc1nc(NCc2ccccc2)nc2ccsc12
    -16.8%	-20.8%
COc1ccc(CCNS(=O)(=O)c2cccc(C(=O)O)c2)cc1OC
    -19.1%	-0.3%
CCCNC(=O)C1(C)CCCN(C(=O)c2cccc(C#N)c2)C1 (centres undefined)
    3.4%	14.3%
CON(C)C(=O)C[C@@H]1C[C@H](OC(=O)c2ccc([N+](=O)[O-])cc2)CN1C(=O)OC(C)(C)C
    -10.9%	-11.8%
CS(=O)(=O)N1CCN(c2ccccc2NC(=O)c2ccc([N+](=O)[O-])o2)CC1
    -6.2%	-6.6%
Clc1nc(-c2n[nH]nc2Cl)n[nH]1
    -7.4%	-9.4%
Cc1c(CNC2CCCCC2)c(C(=O)O)c(C)n1Cc1ccc(Cl)cc1
    -7.2%	28.4%
O=C(CN1C(=O)c2ccc([N+](=O)[O-])cc2C1=O)NCC1CCCO1 (centres undefined)
    -12.8%	i
C[C@@H]1CN([C@H](C)CO)C(=O)CCCn2cc(nn2)CO[C@H]1CN(C)C(=O)c1ccc(N2CCN(C)CC2)cc1
    -10.4%	4.2%
Cc1ccc(S(=O)(=O)N2C(=O)C(C)SC2=Nc2ccccc2)cc1 (centres undefined)
    -7.0%	-10.2%
Cc1ccc(S(=O)(=O)Nc2ccccc2CNc2ccc(Br)cn2)cc1
    -17.1%	-4.9%
CCC1Oc2ccccc2N(CC(=O)NCC2CCCO2)C1=O (centres undefined)
    -1.6%	-10.5%
Cc1ccc2nsnc2c1NC(=O)c1ccc(-c2cc(Cl)ccc2Cl)o1
    -27.0%	.
COc1ccc(CN2CC(C(=O)NCc3cccc(OC)c3)CC2=O)cc1 (centres undefined)
    -18.4%	-14.1%[1.46 µM]
COC(=O)[C@@]1(Cc2ccc(F)cc2)[C@H]2c3cc(C(=O)N4CCCC4)n(C)c3C[C@H]2CN1C(=O)c1ccccc1
    -10.1%	-8.1%
Cc1cc(C)cc(N(CC(=O)Nc2ccc(C)cc2Cl)S(=O)(=O)c2c(C)[nH]c(=O)[nH]c2=O)c1
    -4.3%	-14.3%
COCCn1c(C)cc(C(=O)CSc2cc(C)c3ccc(OC)cc3n2)c1C
    -6.2%	-10.3%
CCOC(=O)N1CCC(NC(=O)c2sc3nc4n(c(=O)c3c2C)CCCC4)CC1
    -19.3%	-26.0%
CCOc1ccc2nc(NC(=O)CN3CCN(c4ccccn4)CC3)sc2c1
    -13.0%	-26.7%
CCOC(=O)c1cnc2c(ccc3ccccc32)c1Nc1ccccc1OCC
    2.3%	-6.0%
O=C1CC2CS(=O)(=O)CC2N1C1CCCCC1 (centres undefined)
    11.3%	-4.8%
CCOC(=O)c1ccc(NC(=O)C2CCN(S(=O)(=O)c3ccccc3)CC2)cc1
    -18.1%	i
COc1cc(C2C(C(=O)c3ccco3)=C(O)C(=O)N2Cc2ccccc2)ccc1O (centres undefined)
    -6.1%	5.6%
CC(=O)N1c2ccc(S(=O)(=O)NCCC(=O)Nc3ccc(Cl)cc3)cc2CC1C (centres undefined)
    -28.1%	-6.9%
CCOC(=O)C1CCCN(C(=O)COc2ccc(S(=O)(=O)N3CCOCC3)cc2)C1 (centres undefined)
    -11.7%	-15.5%
CCCNC(=O)c1ccc(-n2c(-c3ccccc3)cc3c2CCC(C)C3)cc1 (centres undefined)
    -25.7%	-28.5%
Cc1ccc2c(c1)CO[C@@]21O[C@H](CCO)C[C@H](O)[C@H]1O
    -5.4%	i
Nc1ccc2c(c1)C(=O)N(CC1CCCO1)C2=O (centres undefined)
    5.0%	-13.8%

Random excerpt: 3 records from the list
Results follow in this order: VACV Venus inh	VACV mCherry inh
CCOC(=O)c1ccc(NC(=O)C2CCN(S(=O)(=O)c3ccccc3)CC2)cc1
    -18.1%	i
CCOC(=O)c1cnc2c(ccc3ccccc32)c1Nc1ccccc1OCC
    2.3%	-6.0%
O=C1CC2CS(=O)(=O)CC2N1C1CCCCC1 (centres undefined)
    11.3%	-4.8%

Screening data as filed in PubChem BioAssay.
